# Mtb MbtI inh: MbtI salicylate synthase inhibitors, primary screen, biochemical, fluorescence intensity; P9WFX0; purified MbtI enzyme, fluorescence intensity read-out; inhibition, %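 (about 17 µg/mL by stock and volumes)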; actives 0.89% (n = 100,000); AID 493033, 2011;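 active = above 50% in both replicates, above 80% if mildly self-fluorescent; inactive = the rest, strongly fluorescent compounds included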;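 note: 0% = mean of negative and 100% = mean of positive controls; one replicate is shown; some compounds called inactive have numbers as strong as hits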
# MenB inh: M. tuberculosis MenB inhibitors, primary screen, biochemical, absorbance; 1,4-dihydroxy-2-naphthoyl-CoA synthase (Mycobacterium tuberculosis (strain ATCC 25618 / …; MenB enzyme assay, absorbance read-out; some hits fall short of the stated cut; inhibition, %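 (about 12 µg/mL by stock and volumes)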; actives 0.43% (n = 100,000); AID 540299, 2011;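 active = mean of two replicates above 30%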;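 note: 0% = no compound and 100% = wells with inactive enzyme; the first replicate is given; strong numbers were not always called active; inactives centre near -10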
# Target sequence (P9WNP5 whole entry, looked up): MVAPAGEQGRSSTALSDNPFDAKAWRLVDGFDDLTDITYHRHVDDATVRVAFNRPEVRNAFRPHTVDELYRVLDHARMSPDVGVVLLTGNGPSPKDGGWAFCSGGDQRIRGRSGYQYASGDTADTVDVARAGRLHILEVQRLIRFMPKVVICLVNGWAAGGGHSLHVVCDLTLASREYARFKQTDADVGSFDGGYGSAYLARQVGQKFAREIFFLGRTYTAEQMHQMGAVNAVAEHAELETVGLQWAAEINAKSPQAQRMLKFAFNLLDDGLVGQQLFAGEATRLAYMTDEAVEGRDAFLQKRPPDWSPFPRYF
# Polio RdRp inh: poliovirus RdRp elongation inhibitors, primary screen, biochemical, fluorescence polarization, total intensity. AID 588519, 2011. Genome polyprotein (Poliovirus type 1 (strain Mahoney)), P03300. poliovirus polymerase elongation; hits give low values. actives 0.66% (n = 150,000). % elongation, % (compound at 16.7 µg/mL); in the data active = % elongation below about 90%; note: some results filed as inactive read as strong as hits
# Target sequence (P03300 1749-2209 limits assumed): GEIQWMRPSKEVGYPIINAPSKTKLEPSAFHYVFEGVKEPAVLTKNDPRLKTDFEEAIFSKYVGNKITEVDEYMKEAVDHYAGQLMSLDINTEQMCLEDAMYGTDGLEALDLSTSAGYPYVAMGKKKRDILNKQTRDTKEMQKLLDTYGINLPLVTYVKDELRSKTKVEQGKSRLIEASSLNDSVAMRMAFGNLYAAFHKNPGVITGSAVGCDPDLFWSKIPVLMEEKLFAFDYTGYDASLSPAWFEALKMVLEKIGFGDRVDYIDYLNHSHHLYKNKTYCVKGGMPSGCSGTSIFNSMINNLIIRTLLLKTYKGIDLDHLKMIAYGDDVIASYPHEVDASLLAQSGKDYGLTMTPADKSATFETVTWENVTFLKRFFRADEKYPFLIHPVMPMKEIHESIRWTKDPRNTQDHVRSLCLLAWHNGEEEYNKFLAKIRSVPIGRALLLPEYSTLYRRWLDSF
# Polio RdRp inh intensity: also measured in Polio RdRp inh; calls as there; % elongation; measured here: total intensity read-out; formula for this scale not given here;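 total fluorescence in place of polarization; lower means less elongation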
# * = called active by the depositor; · = no result given; & = joins results of further samples.
SMILES,Mtb MbtI inh,MenB inh,Polio RdRp inh,Polio RdRp inh intensity
O=C(Cn1c(C(=O)N2CCN(C3CCCCC3)CC2)cc2sccc21)c1ccccc1,2.8,19.7,101.0,101.0
C[n+]1cccc(C(=O)NO)c1,5.1,8.0,101.0,97.0
CN1c2ccccc2-c2nc(SCC(=O)Nc3ccccc3F)ncc2S1(=O)=O,126.2,-12.3,102.0,102.0
CC(C)Oc1ccccc1C1Nc2ccccc2C(=O)N1c1ccc2c(c1)OCCO2 (configuration not stated),-6.6,-25.6,105.0,109.0
COc1cccc(-c2nnc(-c3ccccc3NS(=O)(=O)c3ccc(Cl)cc3)o2)c1,-2.8,-12.4,108.0,111.0
COc1cccc(NC(=O)CN(c2cccc(OC)c2)S(C)(=O)=O)c1,-26.7,6.8,101.0,101.0
NC(=O)c1cc([N+](=O)[O-])cc([N+](=O)[O-])c1,-6.2,2.6,99.0,100.0
O=C(CC(NCCc1ccccc1)C(=O)O)Nc1ccc(O)cc1 (configuration not stated),0.8,-19.6,104.0,102.0
CCCC(=O)Nc1c2c(nc3ccccc13)N(Cc1ccccc1)CC2,90.4,-28.2,100.0,99.0
Cc1nccc2c1[nH]c1ccccc12,·,-4.7,99.0,99.0
CCn1c2ccccc2c2cc(NC(=O)c3ccc(OC)c(OC)c3)ccc21,·,-24.8,102.0,99.0
C(=N\c1nc2ccccc2s1)/c1cccnc1,-3.9,-26.9,99.0,101.0
Cc1nc(NC2CC2)c2c3c(sc2n1)CCC3,6.8,-37.0,95.0,90.0
COc1cccc(-n2c(CC(=O)NN)csc2=NCc2ccco2)c1,-3.5,-9.5,99.0,106.0
O=C(NCCc1ccccc1)c1nc2ncccn2n1,-11.1,-3.4,101.0,104.0
COc1cc(C=Nc2ccc3c(c2)OCO3)ccc1OC(=O)c1ccco1,11.5,-66.1,102.0,103.0
O=C(CSc1nnc(-c2ccccc2)o1)c1cccc(C(F)(F)F)c1,-9.3,-5.9,108.0,107.0
Cc1cccc(OCc2nnc(SCc3nc4ccccc4c(=O)n3CC#N)o2)c1,-6.1,-18.1,118.0,128.0
COc1ccccc1NC(=O)NC(CC(=O)O)c1ccc(C)cc1 (configuration not stated),2.3,12.2,100.0,101.0
CC1CCc2c(sc3ncnc(NS(=O)(=O)c4cccs4)c23)C1 (configuration not stated),2.2,-27.4,104.0,106.0
CC(=O)N1CCc2c(sc3nc(SCc4ccc(C)cc4)n(Cc4ccco4)c(=O)c23)C1,17.5,-20.1,102.0,104.0
CC(Oc1ccccc1)C(=O)N(CC#N)CC#N (configuration not stated),·,6.6,96.0,94.0
O=C1Nc2ccccc2N(O)N1c1nccs1,1.0,8.1,102.0,99.0
COC(=O)/C(C#N)=C1/C=Cc2ccccc2N1,6.8,-82.1,98.0,102.0
O=C(C1CC1)N1CCN(c2ccc(F)cc2)CC1,-17.6,9.5,100.0,104.0

# Single entries from above:
# Value of `C(=N\c1nc2ccccc2s1)/c1cccnc1` in MenB inh: -26.9
# Value of `NC(=O)c1cc([N+](=O)[O-])cc([N+](=O)[O-])c1` in Polio RdRp inh intensity: 100.0

# Remaining list, next part
SMILES,Mtb MbtI inh,MenB inh,Polio RdRp inh,Polio RdRp inh intensity
O=C(Nc1ccc(Cl)cc1)c1cccnc1C(=O)O,1.8,8.3,101.0,105.0
CC1(C)OC(C)(C)/C(=C/c2c(Cl)cccc2Cl)C1=O,·,-13.6,109.0,111.0
CN(Cc1cccc(F)c1)C(=O)COC(=O)c1ccc2c(c1)NC(=O)CS2,27.6,-2.7,102.0,102.0
O=C1/C(=C\c2c[nH]c3ccccc23)C(c2ccccc2)Oc2ccccc21 (configuration not stated),-16.1,-77.2,140.0,148.0
C[C@@H]1CC[C@@]2(OC1)OC1CC3C4CC=C5C[C@@H](O)CC[C@]5(C)C4CC[C@]3(C)C1[C@@H]2C (some centres not stated),-16.1,-5.3,102.0,100.0
O=C(O)c1ccc(Nc2nc3ccccc3nc2NS(=O)(=O)c2cccs2)cc1,-45.9,-11.9,·,·
COC(=O)Nc1sc2c(c1C(=O)OC)CCC2,21.0,-20.9,101.0,108.0
O=C1c2ccccc2C(=O)c2c1oc1c3c(ccc21)OCN(C1CCCC1)C3,-0.4,5.0,83.0*,78.0*
Cc1cc(C)n2ncc(/C(N)=N/OC(=O)Nc3ccccc3)c2n1,-1.0,25.4,101.0,102.0
O=C(C1CCCN(S(=O)(=O)c2ccc(Br)s2)C1)N1CCN(Cc2ccc3c(c2)OCO3)CC1 (configuration not stated),12.0,9.5,101.0,104.0
COC(=O)c1cc(C(O)(C(F)(F)F)C(F)(F)F)c(N)s1,22.9,8.9,105.0,108.0
CCOCC(=O)Nc1nc2ccccc2s1,40.5,9.4,100.0,103.0
N#CC1=C(N)Oc2cc(O)ccc2C1C1CCCCC1 (configuration not stated),4.6,-32.5,104.0,107.0
CCCOC(=O)c1ccc2c(c1)C(=O)NC2=O,-0.2,17.2,102.0,101.0
CCOC(=O)c1cc(-c2ccc(OC(F)F)cc2)nc2nc(SC)[nH]c(=O)c12,-116.2,-1.1,102.0,107.0
CC(C)(C)c1ccc(NC(=O)CCSc2ccc3ccccc3n2)cc1,-12.0,-34.1,102.0,104.0
CCn1c(COC(=O)Cc2n[nH]c(=O)c3ccccc23)nc2cc(S(=O)(=O)N(C)C)ccc21,11.9,8.0,101.0,96.0
CC(=O)OC1COC(n2nnc3c(NC(=O)C(F)(F)F)cccc32)C(OC(C)=O)C1OC(C)=O (configuration not stated),1.2,-13.7,104.0,110.0
S=C(Nc1ccccc1)Nc1ccccc1-c1nc2ccccc2[nH]1,5.1,3.1,97.0,96.0
O=C1CCC(C(=O)OCC(=O)Nc2ccc(F)cc2)=NN1,-7.4,-17.8,105.0,103.0
O=C(CN1C(=O)COc2ccccc21)Nc1cccnc1,18.8,-57.0,101.0,103.0
CC1(C)Cc2cccc(OCC(=O)NCC(F)(F)F)c2O1,-13.9,3.6,100.0,103.0
Cc1nn(-c2nc3ccccc3[nH]2)c(N)c1-c1ccccc1,11.8,-25.3,100.0,100.0
CC(C)C(=O)c1cn(CC(=O)N2CCCC2)c2ccccc12,14.2,18.1,102.0,102.0
O=C(Oc1ccc2c(c1)OCO2)c1ccc(CS(=O)(=O)c2ccccc2)o1,-2.2,5.3,101.0,104.0

# New compounds follow
SMILES,Mtb MbtI inh,MenB inh,Polio RdRp inh,Polio RdRp inh intensity
Cc1ccccc1-n1c(CSC(=N)N)nc2ccccc2c1=O,·,-21.0,130.0,134.0
O=C(O)C1CCCCC1C(=O)N1CCCCCC1 (configuration not stated),4.2,19.9,99.0,108.0
CC(C)n1c(SCC(=O)N2CCc3ccccc32)nc2c1c(=O)n(C)c(=O)n2C,2.7,-21.6,103.0,105.0
CCCCC[C@H](O)/C=C/C=C\C=C\C=C\[C@@H](O)[C@@H](O)CCCC(=O)O,-7.2,7.3,102.0&101.0,102.0&101.0
Nc1nc(SCC(=O)c2ccc(S(=O)(=O)N3CCCCC3)cc2)nc(-c2ccco2)n1,-3.8,0.1,99.0,104.0
CCOC(=O)c1sc(C)c2c(=O)[nH]c(-c3ccccc3)nc12,4.5,-23.1,105.0,103.0
COc1ccc(C)cc1NC(=S)NN1CCOCC1,-7.8,1.0,99.0,101.0
COC(=O)C1=C(O)CC(C(=O)OC)=C(O)C1,-20.6,-11.7,103.0,108.0
CCOC(=O)C1CCN(Cc2coc3ccc(Cl)cc3c2=O)CC1,32.8,7.5,105.0,108.0
Cn1c(N)nc(N)c(N)c1=O,101.9,-21.5,45.0,244.0
Nc1ccccc1NC(=S)Nc1ccccc1C(F)(F)F,-0.6,-14.0,108.0,117.0
Cc1ccc(NC(=O)COC(=O)c2ccc3c(c2)NC(=O)C2CCCN32)cc1 (configuration not stated),-111.1,-4.8,103.0,108.0
COc1cccc(OC)c1C(=O)N(C(=O)c1c(OC)cccc1OC)c1oc(-c2ccco2)c(-c2ccco2)c1C#N,17.3,12.2,103.0,100.0
COc1cccc(C(=O)NCCSc2c[nH]c3ccccc23)c1OC,-5.8,-20.9,100.0,102.0
Cc1nccn1CCCN,-1.4,-19.8,101.0,100.0
Cc1ccccc1N(C)C(=O)NCc1noc2ccccc12,2.5,-28.4,100.0,101.0
O=C(COC(=O)CSc1nnc(-c2ccc(Cl)cc2)o1)NC1CCS(=O)(=O)C1 (configuration not stated),2.9,6.4,101.0,105.0
Cc1nn(-c2ccccc2)c(C)c1NC(=O)COC(=O)/C=C/c1cccs1,-1.5,-20.9,105.0,108.0
N#CC1=C(N)C(C#N)(C#N)C(c2ccco2)C2CN(Cc3ccccc3)CC=C12 (configuration not stated),4.5,-56.1,76.0,193.0
O=S(=O)(NC1(C(F)(F)F)Oc2ccccc2O1)c1ccccc1,20.8,-18.0,97.0,100.0
CC1(C)Cc2c(sc(NC(=O)C3CC3)c2C(N)=O)C(C)(C)N1,-1.0,9.4,101.0,101.0
COc1ccc(CCN(C)CCCN2CC(c3ccccc3)CC2=O)cc1OC (configuration not stated),-7.5,-3.5,102.0,102.0
C[C@@H]1C(=O)CC[C@@]2(CO)CCC(C)(C)C[C@@H]12,·,-30.9,98.0,104.0
Cc1ccc(C(=O)COC(=O)c2ccccc2O)cc1,-5.2,-6.8,101.0,102.0
Cc1nc(N(CC(=O)OC2CC(C)CCC2C(C)C)S(=O)(=O)c2ccc(N)cc2)c(C)n1N (configuration not stated),8.3,-32.3,·,·

# Retrieved one by one from above:
SMILES,Mtb MbtI inh,MenB inh,Polio RdRp inh,Polio RdRp inh intensity
COc1ccc(CCN(C)CCCN2CC(c3ccccc3)CC2=O)cc1OC (configuration not stated),-7.5,-3.5,102.0,102.0
O=C(NCCc1ccccc1)c1nc2ncccn2n1,-11.1,-3.4,101.0,104.0
S=C(Nc1ccccc1)Nc1ccccc1-c1nc2ccccc2[nH]1,5.1,3.1,97.0,96.0
CC(=O)N1CCc2c(sc3nc(SCc4ccc(C)cc4)n(Cc4ccco4)c(=O)c23)C1,17.5,-20.1,102.0,104.0
CCOC(=O)c1cc(-c2ccc(OC(F)F)cc2)nc2nc(SC)[nH]c(=O)c12,-116.2,-1.1,102.0,107.0
CC(C)n1c(SCC(=O)N2CCc3ccccc32)nc2c1c(=O)n(C)c(=O)n2C,2.7,-21.6,103.0,105.0
CCCCC[C@H](O)/C=C/C=C\C=C\C=C\[C@@H](O)[C@@H](O)CCCC(=O)O,-7.2,7.3,102.0&101.0,102.0&101.0

# (list continues)
SMILES,Mtb MbtI inh,MenB inh,Polio RdRp inh,Polio RdRp inh intensity
CCOC(=O)CC(=O)c1ccccc1,16.3,34.1*,107.0,108.0
Cc1cc(C)cc(N2C(N)=NC(N)=NC2c2ccccc2F)c1 (configuration not stated),-1.6,9.5,103.0,101.0
COC(=O)C1=C(O)/C(=C/c2ccc(C(C)(C)C)cc2)N=C1C,6.2,-79.3,103.0,101.0
Cc1cc2ncc(-c3cccs3)nc2cc1C,·,-9.3,106.0,107.0
CC(C)CC(=O)N=C1SC2CS(=O)(=O)CC2N1c1ccccc1 (configuration not stated),-16.6,-2.9,99.0,101.0
O=C(NCCCn1ccnc1)c1cc(-c2ccccc2)on1,-4.9,-13.5,102.0,97.0
CCOC(=O)c1c(C)oc(NC(=O)COC(=O)COc2ccc3c(c2)CCC3)c1C#N,13.4,-23.5,98.0,86.0
COc1cccc(C(=O)N(C)C)c1,-8.9,-23.3,103.0,100.0
CCN1CCC(N(Cc2ccc(F)cc2)C(=O)NC23CC4CC(CC(C4)C2)C3)CC1,-12.1,-14.7,102.0,106.0
Cc1cccc(OCc2nc(-c3ccc(C(F)(F)F)cc3)no2)c1C,-10.7,-30.1,102.0,102.0
Cc1cc(C(F)(F)F)c(C#N)c(=S)[nH]1,80.9&35.0,-33.2&-40.4,104.0&90.0,112.0
OC(c1cccs1)(c1cccs1)C1CN2CCC1CC2 (configuration not stated),·,8.3,104.0,94.0
NC(=O)CN1CCCC1=O,-11.8&-19.7,4.1&-2.5,102.0&101.0,102.0&101.0
O=C1COc2ccc(C3=Nn4c(nnc4-c4ccncc4)SC3)cc2N1,0.4,6.2,99.0,106.0
CCOc1ccc2nc(NCCNC(=O)C(C)(C)C)c(C)cc2c1,88.3,-9.6,101.0,105.0
NS(=O)(=O)c1ccc(NC(=O)c2ccc(S(=O)(=O)N3CCc4ccccc43)cc2)cc1,8.0,-14.5,99.0,100.0
O=C(Cn1c(=O)n(-c2ccccc2)c(=O)c2oc3ccccc3c21)N1CCCC1,93.9,-10.9,98.0,108.0
Cc1nc(SCc2nc3ccccc3o2)n(C2CCCC2)c1C,15.5,-26.7,98.0,217.0
Cc1nn(-c2ccccc2)nc1C(=O)OCc1ccc(C#N)cc1,-18.6,-1.2,104.0,103.0
CC1CCN(c2ccc(C#N)cc2)CC1,·,-13.8,105.0,99.0
Cc1oc(-c2cccc(C(F)(F)F)c2)cc1C(=O)O,45.7,11.7,103.0,103.0
CCOc1ncc(-c2nnnn2-c2ccc(C)cc2)c(-c2cccc(Cl)c2)n1,-1.4,2.7,105.0,109.0
COc1ccc(NC(=S)NC2CCCCC2)cc1,-2.0,-32.8,99.0,103.0
OCc1cc2ccccc2o1,5.0,13.5,101.0,101.0
CN1C(=O)c2c(sc3c2CCCC3)NC1c1ccc(O)cc1 (configuration not stated),41.6,-4.1,100.0,99.0
O=c1[nH]nc(SCCO)c(=O)[nH]1,4.8,6.8,103.0,100.0

# From PubChem
